A488 autofl = compound fluoresces in the A488 spectral region; compound autofluorescence, A488 spectral region, dye equivalency; stronger effect = higher value; max dye equivalency, M; 59,000 compounds, 0.1% hits; active = above 10 nM dye equivalent; inconclusive = 1 to 10 nM; inactive = 1 nM or less; about half of its hits are not listed in these tables;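 further: highest value over a series up to 38 µM; compound alone in buffer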
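Spectroscopic profiling in the A488 region: compounds in pH 8.0 Tris (100 mM), 15 min RT, CCD imaging with 480 nm excitation and 540 nm emission; responses normalized against A488 dye standards.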
TSHR ag = TSH receptor (human) agonism. 73,000 compounds, 0.48% hits. HEK293-CNG-TSHR cells (CNG channel as cAMP sensor), membrane potential dye, cAMP. P16473. Potency, µM (highest dose often 57.1 µM), inactives show at the highest dose activation, most hits filed as activators; active = well fitted activation curve of enough size with the parental cells flat; inconclusive = any curve in the parental cells; inactive = parental cells flat and receptor cells flat or falling; further: potency means the concentration at half of the fitted maximal effect; % of control where 0% means no effect; weak receptor curves with flat parental cells got no call and are not listed
Target sequence (P16473 whole entry, looked up): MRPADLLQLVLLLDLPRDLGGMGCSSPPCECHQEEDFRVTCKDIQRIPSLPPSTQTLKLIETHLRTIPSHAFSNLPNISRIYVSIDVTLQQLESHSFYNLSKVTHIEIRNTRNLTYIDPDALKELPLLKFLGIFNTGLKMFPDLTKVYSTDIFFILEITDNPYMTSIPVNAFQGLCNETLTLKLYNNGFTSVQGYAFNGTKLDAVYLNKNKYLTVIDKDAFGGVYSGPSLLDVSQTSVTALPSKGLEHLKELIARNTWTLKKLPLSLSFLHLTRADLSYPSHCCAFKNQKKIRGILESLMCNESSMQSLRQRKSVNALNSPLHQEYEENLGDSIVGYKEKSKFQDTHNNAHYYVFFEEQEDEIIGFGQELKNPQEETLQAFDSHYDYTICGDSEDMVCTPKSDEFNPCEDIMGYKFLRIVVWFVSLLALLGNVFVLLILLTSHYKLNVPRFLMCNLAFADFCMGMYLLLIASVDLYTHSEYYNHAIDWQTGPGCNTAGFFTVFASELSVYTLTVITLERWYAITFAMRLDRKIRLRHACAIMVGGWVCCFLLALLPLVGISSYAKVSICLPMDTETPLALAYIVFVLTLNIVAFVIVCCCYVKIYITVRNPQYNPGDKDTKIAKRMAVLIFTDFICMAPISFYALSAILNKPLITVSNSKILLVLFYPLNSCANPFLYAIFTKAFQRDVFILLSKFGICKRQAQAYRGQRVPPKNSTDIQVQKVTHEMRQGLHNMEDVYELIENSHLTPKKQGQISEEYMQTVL
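HEK 293 cells stably expressing TSHR and a cAMP-gated CNG channel; parental CNG-only cells as counterscreen. Cells preloaded 60 min with membrane potential dye plus 100 uM RO 20-1724, then compound 30 min; fluorescence read at 590 nm.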
AID923 = qHTS Assay for Allosteric/Competitive Inhibitors of Caspase-1: Spectroscopic Profiling in AFC Spectral Region | compound fluorescence, AFC spectral region (405/520 nm); almost no hit is shown here | Potency, µM (titrated, usually from 57.5 µM), inactives show at the top dose fluorescence increase, hits mostly activators | 75,000 compounds, 1.1% hits; active means well fitted activation curve with a large enough effect; inconclusive means small, poorly fitted or top-dose-only effect;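 further: potency means the concentration at half of the fitted maximal effect; 0% is about no effect; scaled to a free AFC standard on each plate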
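Titrations up to 57 uM read every 20 sec for 3 min (405/520 nm) with 50 nM caspase 1 and 5 uM Ac-WEHD-AFC, pH 7.5 HEPES buffer. Fluorescence-vs-time intercept gave baseline, scaled against on-plate AFC standard.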
A647 autofl = A647 region autofluorescence; Compound fluorescence, A647 channel (570/671 nm), Tris buffer; max dye-equivalent concentration, M; 59,000 tested, under 10 active; active means above 1 µM dye equivalent; inconclusive means 0.1 to 1 µM; inactive means 0.1 µM or less;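 further: values scaled relative to a standard on each plate; highest value over a series up to 38 µM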
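Buffer was dispensed, compounds and Alexa 647 standards were pin-transferred, and plates sat 15 min at room temperature. Intensity at 570/671 nm was then converted to dye-equivalent concentration using the plate's A647 standard curve.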
Resorufin autofl = resorufin region autofluorescence; max dye-equivalent concentration, M; 59,000 compounds, 0.04% hits; AID 588; Compound fluorescence, resorufin region 547/598 nm, buffer; stronger effect = higher value; active = above 10 nM dye equivalent; inconclusive = 1 to 10 nM; inactive = 1 nM or less; a few of its hits are not listed in these tables; further: highest value over a series up to 38 µM
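Intrinsic fluorescence profiled in the resorufin window (ex 547 nm, em 598 nm) after 15 min at room temperature in pH 8.0 Tris buffer (100 mM); responses normalized against a six-point resorufin standard series as dye-equivalent concentration.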
Numbers without * were called inactive; i = inactive; ? = inconclusive; . = no result given; & = joins results of further samples; [ ] = another dose, or the depositor's remark.

SMILES	A488 autofl	TSHR ag	AID923	A647 autofl	Resorufin autofl
COc1cccc(N(CC(=O)NC(C)(C)C)C(=O)C2CSC(=O)C2)c1 (configuration not stated)	i	-2%	1.5%	3.5e-08	i
CCCCn1c2c(c(=O)n(C)c1=O)C(CC(=O)OCC(=O)Nc1cccc(C(F)(F)F)c1)C(=O)N2 (configuration not stated)	i	-8%	-1.1%	2e-08	i
CCN(CCNC(=O)c1cccc(N2CCCC2=O)c1)c1ccccc1	i	?	0.2%	1e-09	i
COc1ccc(C)cc1NC(=O)CN1CCN(c2ccc(F)cc2)CC1	i	10%	-0.8%	2.3e-08	i
COC(=O)Cc1[nH]nc2c1C(c1cccc(OC)c1OC)C(C#N)=C(N)O2 (configuration not stated)	i	?	0.3%	6.1e-09	i
Cc1ccc(C)c(NS(=O)(=O)c2c(C)ccc3nsnc23)c1	i	-1%	0.2%	4.6e-09	i
CC(Nc1cc(=O)n(C)c(=O)[nH]1)c1ccccc1 (configuration not stated)	i	5%	0.8%	2.8e-08	i
c1ccc2c(N3CCCCC3)nc(N3CCCC3)nc2c1	i	?	0.2%	3.5e-09	i
O=C(CC(=O)c1cc(Cl)ccc1O)c1ccccc1	.	30%	2.4%	.	.
Cc1ccc(Cn2c(NCCc3ccccc3)nc3c2c(=O)n(C)c(=O)n3C)cc1	i	-17%	-3.3%	8.1e-09	i
CC(C)(C)N=C1SCC(C)(/C=N/O)S1 (configuration not stated)	i	1%	3.3%	5.7e-09	i
CCOc1ccc(-c2nc(C#N)c(NC3CC3)o2)cc1	.	-1%	0.9%	.	.
CC(C)(C)NC(=O)CN(Cc1cccs1)C(=O)c1csnn1	i	0%	0.1%	1e-09	i
CC(C)NC(=O)Cn1c(SCC(=O)N2CCCc3ccccc32)nc2ccccc21	i	3%[11.4 µM]	-1.8%	1e-09	i
Cc1nnc(N(Cc2ccco2)C(=O)c2cccc(C#N)c2)s1	i	6%	-0.1%	5.1e-08	i
CC(C)CO/N=C1/[C@H]2O[C@@H]2[C@@H](O)[C@H]2[C@H]1CCn1c(=O)n(Cc3cc4c(cc3Cl)OCO4)c(=O)n12	.	0%[11.4 µM]	2.2%[11.5 µM]	.	.
COC(=O)c1ccc(OCc2nc(N)nc(N3CCOCC3)n2)cc1	i	.	0.4%	1.4e-09	i
COc1ccc(Br)cc1C(=O)Nc1ccc(O)cc1	i	-7%	11%	1.8e-08	i
CCc1cccc2c(=O)c(C(=O)N3CCCCCC3)c[nH]c12	i	.	-0.9%	1e-09	i
COC(=O)C/C=C\[C@@H](C)[C@@H](/C=N\O[C@@H](C)c1cn([C@H](CO)Cc2ccccc2)nn1)NS(=O)(=O)c1ccc(C)cc1	.	-6%&-9%[11.4 µM]	0.1%&-0.7%[11.5 µM]	.	.
NC(=O)NC(c1ccccc1)c1ccccc1F (configuration not stated)	.	5%[11.4 µM]	0.5%	.	.
COC(=O)c1oc2nc(C)cc(C)c2c1N	i	-4%	0.2%	1e-09	i
CN1CCN(S(=O)(=O)c2ccc(-c3ccc(S(=O)(=O)N4CCN(C)CC4)cc3)cc2)CC1	.	-1%	-0.5%	.	.
Cn1c(=O)cc(OCC(=O)NC2CCCCC2)c2ccccc21	i	7%	-1.1%	1.1e-08	i
CCC(Cc1ccccc1)NC(=O)CN1C(=O)CSc2ncccc21 (configuration not stated)	.	?	-0.3%	.	.
Additional entries follow.
SMILES	A488 autofl	TSHR ag	AID923	A647 autofl	Resorufin autofl
CC1(c2ccccc2)NC(=O)N(CC(=O)NC(=O)NC2CCCC2)C1=O (configuration not stated)	i	12%	1.0%	3.3e-09	i
Cc1cc(O)ccc1NC(=O)c1ccccc1	.	-6%	0.9%	.	.
COc1cc(C(=O)NCCc2ccc(S(N)(=O)=O)cc2)cc(OC)c1OC	i	2%	0.2%	1e-09	i
Cc1cc(N2CCCC2=O)c(N)cc1N	i	-2%	-0.7%	2.8e-08	i
O=C(NCCN1CCN(c2ccccc2)CC1)C1CCN(S(=O)(=O)c2cccc3nonc23)CC1	i	-5%	1.1%	1e-09	i
Cc1ccc(S(=O)(=O)N(Cc2ccccc2)Cc2ccco2)cc1	.	?	0.3%	.	.
CCOc1ccc2ccccc2c1C(=O)N1CCN(c2ccccc2)CC1	i	?	3.8%	2.2e-08	i
CCNC(=O)C1CC(=O)N(Cc2ccc3c(c2)OCO3)C(=Nc2ccc(OCC)cc2)S1 (configuration not stated)	i	32µM*	0.2%	3.2e-09	i
O=c1c(-c2ccc(F)c(F)c2)nc2cncnc2n1Cc1ccccc1Cl	i	-36%[inhibitor]	4.2%	3.9e-09	i
Cc1c(OCc2ccccc2)cccc1OCc1ccccc1	.	-1%[11.4 µM]	3.3%[11.5 µM]	.	.
COCCCNC(=O)C1CCN(c2nc(C)cc(C)n2)CC1	i	6%	-2.3%	5.4e-09	i
CC(c1ccco1)N(C(=O)C12CC3CC(CC(C3)C1)C2)c1ccccn1 (configuration not stated)	i	?	1.0%	1e-09	i
Cc1cc(C)c(C(=O)CSc2nnc(-c3ccccc3Br)o2)cc1C	i	?	9.7%	1e-09	i
CN(C)CCN1C(=O)C(=O)/C(=C(/O)c2ccc(F)cc2)C1c1ccccc1F (configuration not stated)	.	-2%	4.6%	.	.
CC(=O)N(Cc1ccccc1)c1ccc(C(=O)O)cc1	i	.	.	3.4e-08	i
COC(=O)c1ccc(C2/C(=C(\O)c3ccc(OC)c(C)c3)C(=O)C(=O)N2c2cc(C)on2)cc1 (configuration not stated)	i	.	.	2.6e-08	i
CCOc1ccccc1-c1nc(C(N)=O)c2[nH]c(=O)n(-c3cccc(C)c3)c2n1	i	?	-0.9%	1e-09	i
COc1cc(NS(=O)(=O)c2ccc(C)cc2)c2ncccc2c1	i	?	-2.0%	6.5e-09	i
CC(=O)OC(C(=O)c1ccccc1)c1ccccc1 (configuration not stated)	.	12%	-0.2%	.	.
C=C(C)OC(C)=O	.	4%	-1.7%	.	.
Cc1cc(C)c2c(n1)sc1c(O)cc(=O)[nH]c12	i	6%	1.6%	4.6e-09	i
COC(=O)NC(c1ccc(Cl)cc1)C(C(C)=O)C(=O)OC (configuration not stated)	.	4%[11.4 µM]	-0.9%[11.5 µM]	.	.
COc1ccccc1CC(=O)N1CCN(c2cccc(C(F)(F)F)c2)CC1	.	?	0.0%	.	.
O=C(c1ccc2c3c(cccc13)CC2)N1CCN(c2ncccn2)CC1	i	29%	-0.9%	2.5e-08	i
Cn1c(=O)c2c(ncn2CC(=O)OCC(=O)NC2CCCc3ccccc32)n(C)c1=O (configuration not stated)	i	0%	-1.4%	1e-09	i

Laid out differently: results already given.
Below each compound: A488 autofl, TSHR ag, AID923, A647 autofl, Resorufin autofl
- Cc1cc(N2CCCC2=O)c(N)cc1N
→ i, -2%, -0.7%, 2.8e-08, i
- Cc1c(OCc2ccccc2)cccc1OCc1ccccc1
→ ., -1%[11.4 µM], 3.3%[11.5 µM], ., .

The list continues.
SMILES	A488 autofl	TSHR ag	AID923	A647 autofl	Resorufin autofl
O=C(c1cccc(-c2nnc(-c3ccccc3)o2)c1)N1CCCCC1	i	21%	3.6%	1e-09	i
CCOC(=O)CNc1c(-c2ccc(O)cc2)nc2ccc(Cl)cn12	i	-5%	8.2%	7.4e-09	i
CC(C)NC(=O)c1ccccc1NC(=O)c1ccccc1N(C)S(C)(=O)=O	i	-2%	-1.3%	1e-09	i
CC1=Nn2c(nnc2-c2ccccc2)SC1	i	-11%	1.2%	2.6e-09	i
CCCOC(=O)CSC1=C(C#N)C(c2ccccc2OC)C(C#N)C(=O)N1 (configuration not stated)	i	.	.	9.4e-08	i
C=CCNc1nc(N2CCCCC2)c(C#N)c2c1CN(Cc1ccccc1)CC2	i	.	.	2.6e-08	i
CCOc1ccc(NC(=O)CC2CC(C)(C)OC2=O)cc1 (configuration not stated)	i	13%	2.2%	2.7e-09	i
COCCCNC(=O)Cn1cc2c(n1)CCC(C)C2 (configuration not stated)	.	0%	1.8%	.	.
CC(=O)Nc1cccc(N2C(=O)CC(N3CCC(C(=O)N4CCCCC4)CC3)C2=O)c1 (configuration not stated)	i	-7%	-0.5%	4.3e-09	i
CCOc1ccc2[nH]c(=O)c(C(c3nnnn3C3CCCCC3)N3CCN(CC)CC3)cc2c1 (configuration not stated)	i	8%	8.0%	4.5e-09	i
CCC(C)(C)NC(=O)C(c1ccc(F)cc1)N(Cc1ccco1)C(=O)c1snc(C(N)=O)c1N (configuration not stated)	i	?	2.9%	4.4e-08	i
COc1ccc(S(=O)(=O)N2CCOCC2)c(Cl)c1Cl	i	-3%	-2.9%	2.1e-09	i
COC(=O)CNC(=O)Cn1cnc2sc(C)c(S(=O)(=O)N3CCC(C)CC3)c2c1=O	i	-3%	0.7%	1e-09	i
CC(=O)Nc1nc(CC(C)C)cc2c1c(=O)oc1ccccc12	i	11%	0.9%	2.7e-08	i
Cc1nnc(NC(=O)CSc2nnc3scc(-c4ccc(C)c(C)c4)n23)s1	i	1%	-1.8%	6.5e-08	i
O=C(CN1CCN(Cc2ccccc2)CC1)Nc1ccc(Cl)cn1	i	11%	1.1%	2.9e-08	i
CCOc1cc(-c2conc2N)cc(OCC)c1OCC	i	-1%	1.4%	1e-09	i
O=C(CSc1nc2ccccc2n1CC(=O)N1CCCC1)NCc1ccc2c(c1)OCO2	i	0%	0.6%	1e-09	i
O=S(NC1CCCCC1)C12CC3CC(CC(C3)C1)C2 (configuration not stated)	.	4%	1.5%	.	.
CS(=O)(=O)N1CCN(C(=O)c2cc(-c3ccncc3)nc3ccc(Cl)cc23)CC1	i	-6%	0.7%	1.3e-09	i
Cc1cccc(C(=O)NCN2CCN(c3ccccc3C#N)CC2)c1	i	?	-0.8%&-2.3%	1e-08	i
O=C1c2ccccc2C(Nc2cccnc2)N1Cc1ccccc1Cl (configuration not stated)	.	23%	-0.2%	.	.
CCCc1cc(=O)[nH]c(SCC(=O)c2cc(C)n(CCOC)c2C)n1	i	.	-0.5%	2.5e-08	i
COc1cccc(C(=O)OCn2nnc3ccccc3c2=O)c1	i	.	-0.8%	1.8e-09	i
O=C(CSc1ncccn1)NCc1ccccc1Cl	i	-14%	-1.1%	8.6e-09	i
(next part)
SMILES	A488 autofl	TSHR ag	AID923	A647 autofl	Resorufin autofl
C=CCN(CC=C)C(=O)Cc1ccc(F)cc1	i	4%	0.3%	1e-09	i
Cc1nnc(NC(=O)C2CCN(c3cnccn3)CC2)s1	i	-11%	0.7%	1e-09	i
C=C(C)CN(CC)C(=O)CSc1nc2ncc(Cl)cc2[nH]1	i	3%	0.6%	3.4e-08	i
COc1cccc(-c2ccc(-c3noc(-c4ccccc4F)n3)c(OC)n2)c1	i	23%	0.4%	1.8e-09	i
Cc1cc(C)c2c3c(c(-c4ccccc4)n2n1)c(=O)n(C)c(=O)n3C	.	2%[11.4 µM]	4.5%	.	.
COC(=O)c1cccc(S(=O)(=O)N2CCC(NC(=O)NC34CC5CC(CC(C5)C3)C4)CC2)c1	i	8%	1.8%	1e-09	i
O=C(O)c1cc(=O)c2ccc(Cl)cc2[nH]1	i	8%&3%	-2.9%	1.3e-09	i
COc1ccc2c(c1)CCc1c(C(=O)N3CC4(C)CC3CC(C)(C)C4)noc1-2 (configuration not stated)	i	16%	-1.3%	2e-08	i

Given as labelled records: part of the list above.
> Cc1cc(C)c2c3c(c(-c4ccccc4)n2n1)c(=O)n(C)c(=O)n3C
  A488 autofl: .
  TSHR ag: 2%[11.4 µM]
  AID923: 4.5%
  A647 autofl: .
  Resorufin autofl: .

> COc1ccc2c(c1)CCc1c(C(=O)N3CC4(C)CC3CC(C)(C)C4)noc1-2 (configuration not stated)
  A488 autofl: i
  TSHR ag: 16%
  AID923: -1.3%
  A647 autofl: 2e-08
  Resorufin autofl: i

> C=CCN(CC=C)C(=O)Cc1ccc(F)cc1
  A488 autofl: i
  TSHR ag: 4%
  AID923: 0.3%
  A647 autofl: 1e-09
  Resorufin autofl: i

> Cc1nnc(NC(=O)C2CCN(c3cnccn3)CC2)s1
  A488 autofl: i
  TSHR ag: -11%
  AID923: 0.7%
  A647 autofl: 1e-09
  Resorufin autofl: i

Assay outcomes from PubChem BioAssay.

This is a subset (hit frequency here may not be typical).
